VACV mCherry inh: qHTS for Stage-Specific Inhibitors of Vaccinia Orthopoxvirus: mCherry Reporter Primary qHTS. hit rate 0.63% among 310,000. AID 720579, 2013. Potency, µM (doses to about 36.5 µM), without a hit: at the highest dose activity change, negative = inhibition, actives largely listed as inhibitors. Vaccinia virus mCherry reporter infection, fluorescence; about a quarter of the inactives have no number; active = well fitted inhibition curve with a large enough effect; inconclusive = small, poorly fitted or top-dose-only effect; inactive = no such curve, though single readings can be large or run the other way; tested in A549 cells; further: nearly all actives have a fitted effect of over 35% in size; inactives centre near -10
Vaccinia Venus: qHTS for Stage-Specific Inhibitors of Vaccinia Orthopoxvirus: Venus Reporter Primary qHTS; Potency, µM (series often up to 36.5 µM), without a hit: at the highest dose activity change, negative = inhibition, usual class: inhibitors; hit rate 0.46% among 330,000; AID 720580, 2013; Vaccinia virus Venus reporter expression, fluorescence; active means well fitted inhibition curve with a large enough effect; inconclusive means small, poorly fitted or top-dose-only effect; inactive means no such curve, though single readings can be large or run the other way; tested in A549 cells; further: nearly all actives have a fitted effect of over 30% in size; inactives centre near -10
Starred values were filed as active, the others as inactive; i = inactive; ? = inconclusive; / = not tested or not shown; [ ] = another dose, or the depositor's remark. On the % scale 0 is the no-effect control and ±100 the full control effect; potency means the concentration at half of the fitted maximal effect.

#1 COc1cc(CNC(=O)c2cc(-c3cc(F)ccc3OC(C)C)n[nH]2)cc(OC)c1
#2 Cc1ccc(-c2ccc(=O)n(CC(=O)NCCc3ccc(Cl)cc3)n2)cc1
#3 Cc1c(N2C(=O)CSC2c2ccccc2)c(=O)n(-c2ccccc2)n1C (stereo not drawn)
#4 COc1ncc(-c2ccc(N3C(c4ccc([N+](=O)[O-])cc4)=Cc4ccccc4C3CC(C)=O)cc2)cn1 (stereo not drawn)
#5 COc1cc(C2C(C(C)=O)=C(O)C(=O)N2CCc2ccc(OC)c(OC)c2)ccc1O (stereo not drawn)
#6 O=C(CC(Cc1ccccc1)c1ccco1)NC1CCCCC1 (stereo not drawn)
#7 O=C(OCc1nc2scc(-c3ccccc3)c2c(=O)[nH]1)c1cccc([N+](=O)[O-])c1
#8 CCN(CC)c1nn2c(=O)c(C(=O)NCCc3ccccc3)cnc2s1

screen / no. | 1 | 2 | 3 | 4 | 5 | 6 | 7 | 8
VACV mCherry inh | -16% | -5% | i | 0% | -14%[1.46 µM] | i | -12% | -15%
Vaccinia Venus | -14% | -4% | -13% | 0% | 15% | -15% | -9% | -15%

#9 CC(O)[C@H]1CNCCN1CCc1cccc2ccccc12 (stereo partly drawn)
#10 CC(C)C[C@@H](CNCC(=O)[C@H](C)NC(=O)c1[nH]cnc1C(=O)N[C@@H](C)CN)NC(=O)c1nc[nH]c1C(=O)N[C@@H](Cc1ccccc1)C(=O)O
#11 COc1ccc(C2/C=C\CN(S(=O)(=O)c3cccc4cccnc34)CC(=O)N2Cc2ccc(F)cc2)cc1 (stereo not drawn)
#12 O=C(NCCN1CCN(c2cccc(Cl)c2)CC1)C1COc2ccccc2C1 (stereo not drawn)
#13 CCOc1ccc(-c2nnc3ccc(SCC(=O)Nc4nc5ccccc5s4)nn23)cc1
#14 O=C(Nc1ccc(O)cc1)c1ccc(NC(=O)c2cccs2)cc1
#15 CCc1ccc(C2C(C#N)=C(N)OC3=C2C(=O)CCC3)s1 (stereo not drawn)
#16 COC(=O)COc1cccc2c(=O)n(CC(=O)Nc3ccc4c(c3)OCCO4)ccc12

screen / no. | 9 | 10 | 11 | 12 | 13 | 14 | 15 | 16
VACV mCherry inh | i | i | ? | -18% | i | -12% | -14% | -7%
Vaccinia Venus | 3% | 3% | -25% | -22% | -19% | -2% | -11% | ?

#17 Cc1c(N=Cc2c(O)n(C3CCCCC3)c(=O)[nH]c2=O)c(=O)n(-c2ccccc2)n1C
#18 Cc1ccnc(NC(=O)Cc2ccc(F)cc2)n1
#19 O=C(O)COc1ccc(Br)cc1/C=N/O
#20 COc1ncnc2c1ncn2CCCN1CCN(Cc2ccc(C)cc2)CC1
#21 O=C(c1ccc(Cl)c([N+](=O)[O-])c1)N1CCN(C(=O)c2ccco2)CC1
#22 FC(F)(F)c1cnc(COc2ccc(Cl)cc2Cl)c(Cl)c1
#23 O=[N+]([O-])c1ccc(/C=N/n2cn[nH]c2=S)cc1
#24 Cc1cc(C)cc(CC(=O)N2CCC2(C)C(=O)NS(=O)(=O)c2cc(C)ccc2F)c1 (stereo not drawn)

screen / no. | 17 | 18 | 19 | 20 | 21 | 22 | 23 | 24
VACV mCherry inh | -11% | i | / | -17% | i | -19% | i | 46%[activator]
Vaccinia Venus | 4% | -3% | -11% | 0% | -3% | -10% | -4% | 4%

#25 CCS(=O)(=O)N1CCC(C(=O)NCc2ccc(F)cc2)CC1
#26 Fc1ccc(C(CCNCc2ccccn2)c2ccc(Cl)cc2)cc1 (stereo not drawn)
#27 CC(=O)Nc1cccc(-c2ccnc3c2CC(C)(C(=O)NCc2ccc(F)c(F)c2)O3)c1 (stereo not drawn)
#28 CCOc1ccc(NC(=O)c2ccccc2SC)cc1
#29 CC(C)CC1Nc2ncnc(N3CCCCC3)c2N(Cc2ccccc2)C1=O (stereo not drawn)
#30 Nc1nc(SCc2ccccn2)c2ncn(C3OC(CO)C(O)C3O)c2n1 (stereo not drawn)
#31 COc1ccc(C(CNC(=O)COc2ccc(F)cc2Br)N2CCCC2)cc1 (stereo not drawn)
#32 COc1ccc2cc3cc(C(=O)NCCN4CCN(Cc5ccccc5)CC4)oc3nc2c1

screen / no. | 25 | 26 | 27 | 28 | 29 | 30 | 31 | 32
VACV mCherry inh | -7% | -16% | ? | i | -17% | i | -7% | -14%
Vaccinia Venus | -11% | ? | ? | 0% | -24% | -11% | -10% | -2%

#33 Fc1ccc(COc2ccccc2CNc2nn[nH]n2)cc1
#34 Cc1cc(C(=O)NNC(=O)Cc2ccc(Cl)cc2)c(C)o1
#35 CC1CCCN(C(=O)C2CCN(CCCc3ccccc3)CC2)C1 (stereo not drawn)
#36 COC(=O)c1cc(NC(=O)c2c(-c3ccccc3)noc2C)ccc1N1CCOCC1
#37 O=C(N/N=C/C=C/c1ccco1)c1ccccc1Cl
#38 Cc1ccc(NC(=O)CSc2nc(-c3ccc(F)cc3)cc(C(F)(F)F)c2C#N)cc1
#39 CCN1C(=O)[C@H]2[C@@H](c3ccc(C)cc3)N3C(=O)N(c4ccc(C)cc4)C(=O)[C@@]3(C)[C@H]2C1=O
#40 CCn1c(SCC(=O)N/N=C/c2c[nH]c3ccccc23)nnc1-c1ccc(C(C)(C)C)cc1

screen / no. | 33 | 34 | 35 | 36 | 37 | 38 | 39 | 40
VACV mCherry inh | -3% | -7% | / | -2% | -4% | -2% | i | ?
Vaccinia Venus | -15% | 1% | -15% | -12% | -19% | 8% | -11% | -25%

#41 Cc1ccc(SCC(=O)NCC2COc3ccccc3O2)cc1 (stereo not drawn)
#42 CCOC(=O)C1(C)CCCN1C(=O)c1ccc(C(F)(F)F)nc1C (stereo not drawn)
#43 CC1CCC2(CC1)NC(=O)N(CC(=O)Nc1cc(S(=O)(=O)N3CCCC3)ccc1Cl)C2=O (stereo not drawn)
#44 CN1CCN(C(=O)C[C@H]2C[C@H]3c4cc(NC(=O)NC5CCCCC5)ccc4O[C@H]3[C@@H](CO)O2)CC1
#45 Clc1ccc(-c2nnc3sc(-c4ccc(Br)o4)nn23)cc1
#46 CCN(CC)c1ccc(NC(=O)c2c(C)nn(-c3ccc(F)cc3)c2-n2cccc2)c(C)c1
#47 COc1cccc(/C=C/C(=O)OCC(=O)Nc2ccc(N3CCOCC3)cc2)c1OC
#48 CS(=O)(=O)NNC(=O)Cn1nnc(-c2cc(C(F)(F)F)cc(C(F)(F)F)c2)n1

screen / no. | 41 | 42 | 43 | 44 | 45 | 46 | 47 | 48
VACV mCherry inh | -21% | 15% | -8% | i | 14% | -15% | -11% | -4%
Vaccinia Venus | -24% | 0% | -14% | -4% | 21% | -9% | -5% | 11%

#49 CCC(C)[C@@H](C(=O)N1CCNCC1)n1cc(CCCCN)nn1 (stereo partly drawn)
#50 Cn1c(SCc2cccnc2)nc2cccnc21
#51 CCNc1nnc(-c2ccc(C)cc2)o1
#52 COc1cc(CCCN2CCNC[C@@H]2CC2CCCCC2)cc(OC)c1OC
#53 Cc1cccc(C(=O)OCC(=O)N2CCCCCC2)c1
#54 COC(=O)C1=C(C)N(CCCC(=O)O)C(=O)NC1c1ccc(OC)cc1 (stereo not drawn)
#55 Cc1c(NC(=O)C2CCCN(S(=O)(=O)c3cnc[nH]3)C2)c(=O)n(-c2ccccc2)n1C (stereo not drawn)
#56 CC(C)C(=O)N1CCCC1(C)C(=O)NCc1ccc(Cl)cc1 (stereo not drawn)

screen / no. | 49 | 50 | 51 | 52 | 53 | 54 | 55 | 56
VACV mCherry inh | i | -21% | -19% | 14% | -8% | i | 12% | -5%
Vaccinia Venus | -21% | -17% | -12% | -9% | -4% | 4% | 0% | 17%

#57 Cc1cc(C)n(CC(=O)NCCC2=CCCCC2)n1
#58 COC(=O)C1=C(c2cccc(OC)c2OC)C[C@@H]2CC[C@H]1N2C(=O)NCCS(C)=O (stereo partly drawn)
#59 CCc1cccc(CC)c1NC(=O)CSc1nnc(C(C)C)n1CC
#60 CCCS(=O)(=O)N1CCCC(C(=O)N2CCCCC2)C1 (stereo not drawn)
#61 Cc1cccc([C@@H]2[C@@H]3C(=O)N(Cc4ccccc4)C(=O)[C@@H]3[C@]3(C)C(=O)N(c4cccc(Cl)c4)C(=O)N23)c1
#62 CCOc1ccc(Cl)cc1CNCCc1ccccc1F
#63 Nc1[nH]nc2nc(NCc3ccccc3)c3c(c12)CCN(Cc1ccccc1)C3
#64 CCOc1ccc(N(C(=O)c2ccccc2Cl)C2=NC(C)(C)CS2)cc1

screen / no. | 57 | 58 | 59 | 60 | 61 | 62 | 63 | 64
VACV mCherry inh | -5% | i | -20% | i | i | ? | -19% | -10%
Vaccinia Venus | -9% | -8% | -4% | 0% | -18% | 10% | 0% | -16%

#65 CCOC(=O)Cc1csc(NC(=O)c2ccco2)n1
#66 CC(=O)Oc1c(Sc2ccccc2[N+](=O)[O-])c(C)nn1C(C)(C)C
#67 O=C(COC(=O)COc1ccccc1)NCCc1ccccc1
#68 CC(C)(C)N/N=C/c1c(O)n(-c2ccc(Cl)cn2)c(=O)c2ccccc12
#69 COc1ccc(OC)c(C2NC(=O)NC(C)=C2C(=O)OC2CCCCC2)c1 (stereo not drawn)
#70 Cc1cc(C)c(NC(=O)CN2c3ccccc3S(=O)(=O)c3ccccc32)c(C)c1
#71 COC(=O)C1=CN(c2cccc(OCc3ccccc3)c2)C(N)=C(C#N)C1c1ccccc1 (stereo not drawn)
#72 CCc1ccc(CNC(=O)C2CCCN(S(=O)(=O)N3CC(C)CC(C)C3)C2)cc1 (stereo not drawn)

screen / no. | 65 | 66 | 67 | 68 | 69 | 70 | 71 | 72
VACV mCherry inh | -5% | ? | -19% | -27% | -1% | -8% | -29% | i
Vaccinia Venus | -3% | -29% | 4% | -9% | -15% | -6% | 2% | -15%

Numbers 58–69, reprinted for reference:
#58 COC(=O)C1=C(c2cccc(OC)c2OC)C[C@@H]2CC[C@H]1N2C(=O)NCCS(C)=O (stereo partly drawn)
#59 CCc1cccc(CC)c1NC(=O)CSc1nnc(C(C)C)n1CC
#60 CCCS(=O)(=O)N1CCCC(C(=O)N2CCCCC2)C1 (stereo not drawn)
#61 Cc1cccc([C@@H]2[C@@H]3C(=O)N(Cc4ccccc4)C(=O)[C@@H]3[C@]3(C)C(=O)N(c4cccc(Cl)c4)C(=O)N23)c1
#62 CCOc1ccc(Cl)cc1CNCCc1ccccc1F
#63 Nc1[nH]nc2nc(NCc3ccccc3)c3c(c12)CCN(Cc1ccccc1)C3
#64 CCOc1ccc(N(C(=O)c2ccccc2Cl)C2=NC(C)(C)CS2)cc1
#65 CCOC(=O)Cc1csc(NC(=O)c2ccco2)n1
#66 CC(=O)Oc1c(Sc2ccccc2[N+](=O)[O-])c(C)nn1C(C)(C)C
#67 O=C(COC(=O)COc1ccccc1)NCCc1ccccc1

screen / no. | 58 | 59 | 60 | 61 | 62 | 63 | 64 | 65 | 66 | 67
VACV mCherry inh | i | -20% | i | i | ? | -19% | -10% | -5% | ? | -19%
Vaccinia Venus | -8% | -4% | 0% | -18% | 10% | 0% | -16% | -3% | -29% | 4%

#68 CC(C)(C)N/N=C/c1c(O)n(-c2ccc(Cl)cn2)c(=O)c2ccccc12
#69 COc1ccc(OC)c(C2NC(=O)NC(C)=C2C(=O)OC2CCCCC2)c1 (stereo not drawn)

screen / no. | 68 | 69
VACV mCherry inh | -27% | -1%
Vaccinia Venus | -9% | -15%

Remaining list, next part:
#73 COc1ccc(NC(=O)C2CCCN2C(=O)NC2CCCCC2)c(OC)c1 (stereo not drawn)
#74 Cc1ccc(-c2nc3sccn3c2Nc2ccccc2C)cc1
#75 COc1c(OC(C)=O)ccc(/C=N\NC(=O)c2ccc(Br)cc2)c1[N+](=O)[O-]
#76 O=[N+]([O-])c1ccc2c(c1)CNc1ccccc1O2
#77 CC(C)(O)CCC(C)(C)O
#78 Cn1c(=O)[nH]c(=O)c2c1nc(N1CCN(CCO)CC1)n2Cc1ccccc1
#79 OC(c1ccccc1)(c1ccccc1)C1CCN(C(=S)NCCc2ccccc2)CC1
#80 Cc1ccc(S(=O)(=O)N2CCCC2)cc1C(=O)NC1CCCCC1

screen / no. | 73 | 74 | 75 | 76 | 77 | 78 | 79 | 80
VACV mCherry inh | -9% | -17% | -1% | ? | -25% | i | ? | i
Vaccinia Venus | -7% | -8% | -7% | -15% | -9% | -10% | ? | -8%

#81 O=S(=O)(c1ccc(Cl)cc1)N1CC1c1ccccc1 (stereo not drawn)
#82 COc1ccc(N=C2NC(=O)/C(=C/c3ccc(O)c(OC)c3)S2)cc1
#83 COc1ccc(CNC(=O)C2CCCN2)cc1OC (stereo not drawn)
#84 COc1cc(NC(=O)CSc2nnc(C)s2)cc(OC)c1
#85 NC(=S)NN=Cc1ccc(OC(=O)COc2cc(Cl)c(Cl)cc2Cl)cn1
#86 Cc1ccc(NC(=O)c2cccc(S(=O)(=O)N3CCCCC3)c2)cc1
#87 Cc1nn2c(COc3ccc(NC(=O)C(C)C)cc3)nnc2c2ccccc12
#88 CC1(C(=O)NS(=O)(=O)c2ccc(Cl)cc2)CCN1C(=O)C1(c2ccc(Cl)cc2)CC1 (stereo not drawn)

screen / no. | 81 | 82 | 83 | 84 | 85 | 86 | 87 | 88
VACV mCherry inh | i | ? | -11% | / | 11µM* | -13% | -4% | 33%[activator]
Vaccinia Venus | -11% | 11% | -8% | 0% | -25% | -9% | -18% | -6%

Bioassay records from PubChem.
